Screening data from PubChem.
PrP UTR inh – inhibition of PrP 5' UTR reporter expression; actives 0.35% (n = 340,000); cell-based PrP 5' UTR mRNA reporter, plate reader; inhibition, % (no concentration beside the values);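 active = every replicate at 50% or more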;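 note: 0 = median of the neutral control wells; tested in H4 reporter cells; numbers are from one replicate; inactives centre near -14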
Autofluor counter – counter-screen for toxin protease inhibitors: compound fluorescence; compound autofluorescence counterscreen, microsphere flow cytometry; hits give high values; fluorescence intensity (no concentration beside the values); actives 3.1% (n = 360,000); AID 624483;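 active = at least 3 SD above the mean of all compounds, about 16000 in these data; inconclusive = too few beads counted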;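 note: 100 nL of 1 mM stock went into each well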
ugtP null kill – growth inhibition of S. aureus ugtP deletion strain. S. aureus RN4220 ugtP deletion, OD600 growth, 16 h; some inactives read as strong as hits. growth inhibition, % (concentration not given with the values). actives 0.54% (n = 330,000);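 active = z-score under -3 and OD600 up to 0.15 on both plates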;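 note: plate controls were untreated wells for no effect and antibiotic for full effect; wells of about 80 µL received 100 nL stock; the first replicate is given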
Sa RN4220 lethal – S. aureus RN4220 growth inhibition; OD600, 16 h; inhibition, % (concentration not given with the values); actives 0.33% (n = 330,000); AID 1259311;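 active = z-score of -3 or lower and OD600 up to 0.18 on both plates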;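 note: plate controls were untreated cells for no effect and reference antibiotic for full effect; stock transfer was 100 nL into about 80 µL; one replicate is shown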
BJeLR lethal – kills HRASV12-expressing BJeLR cells | inhibition, % (test concentration not listed) | actives 0.17% (n = 300,000) | BJeLR (HRASV12) viability, CellTiter-Glo ATP luminescence, 48 h; reference of the scale not given here | AID 1554;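 active = replicate mean above 50%; inconclusive = above 50% but judged a plate artefact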;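 note: 50 nL library stock added to about 25 µL; numbers are from one replicate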
Mtb hypoxia rep – inhibitors of hypoxia-regulated fluorescent reporter in Mycobacterium tuberculosis; M. tuberculosis hypoxia-regulated fluorescent reporter, fluorescence; fluorescence inhibition, % (test concentration not listed); actives 0.1% (n = 300,000); AID 1159583;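 active = 35 to 45% if threefold the growth effect, above 45% if 1.5-fold the growth effect; inactive = the rest, general growth blockers included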;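 note: wells of about 50 µL received 100 nL stock; 0% = vehicle wells and 100% = reference inhibitor wells; whole bacteria with a GFP reporter of the hypoxia response; strong numbers were not always called active; many hits fall short of the cut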
Mtb hypoxia rep growth – second read-out of Mtb hypoxia rep, no call of its own (marks repeat the call); growth inhibition, %; measured here: M. tuberculosis growth (absorbance);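 0% = vehicle and 100% = reference antibiotic; read after six days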
* marks the source's active call; other numbers are inactive results; ? = inconclusive; · = not tested or not shown.

Molecule,PrP UTR inh,Autofluor counter,ugtP null kill,Sa RN4220 lethal,BJeLR lethal,Mtb hypoxia rep,Mtb hypoxia rep growth
Cc1ccc(S(=O)(=O)Cn2nnnc2C(CC(C)C)N2CCN(c3ccccc3)CC2)cc1 (stereo not given),-5,3405,1,5.6,1,·,·
CCOc1ccccc1Nc1nnc(SCC(=O)N(C)C2CCS(=O)(=O)C2)s1 (stereo not given),-20,3637,1,-0.6,·,9,2
CC(C)c1ccc(NC(=O)CSc2nc(=O)n(CCCN3CCOCC3)c3c2CCCC3)cc1,7,5936,6,3.2,4,4,15
Cc1ccc(NC(=O)COC(=O)c2cccc3c(=O)c(C)c(-c4ccccc4)oc23)cc1,-18,2168,-6,2.7,-2,12,13
CN1CCN(Cc2nc3ccccc3c(=O)n2Cc2nc(-c3ccc([N+](=O)[O-])cc3)cs2)CC1,4,2345,4,6.7,17,0,6
N#C/C(=C\c1ccccc1C(F)(F)F)C(=O)Nc1ccccc1F,-2,2166,1,5.3,-3,-1,4
CCn1c(SCC(=O)N2CCCC2=O)nnc1-c1cccs1,-19,4073,8,5.4,·,15,4
Cc1nc2c(c(C)nn2-c2ccccc2)c(C)c1CCC(=O)N1CCC2(CC1)OCCO2,-2,3173,2,3.0,3,6,2
COc1ccccc1C(=O)Nc1ccc2c3c(cccc13)CC2,-84,2647,7,4.7,-12,9,6
O=C(/C=C/c1cccc(F)c1)N1CCN(c2ncccn2)CC1,-31,4446,-1,-0.3,10,3,3
CCCOc1ccc(C(=O)NCCN2CCOCC2)cc1,-17,4039,13,4.2,-21,11,1
CCOC(=O)COc1ccc([N+](=O)[O-])cc1,-2,2536,11,2.7,-4,9,5
COc1ccccc1Nc1nnc(Cc2ccccc2)c(=O)[nH]1,-66,4237,17,3.9,-4,10,12
O=C(CCc1ccccc1)NC(c1cccs1)c1cc(Cl)c2cccnc2c1O (stereo not given),22,4522,16,76,-7,14,7
CC(=O)Nc1ccc(S(=O)(=O)NCC(=O)OCC(=O)NC(=O)c2cccn2C)cc1,-22,6004,17,4.1,-9,1,11
COc1ccccc1NC(=O)C(C)N(C)CCOc1ccccc1 (stereo not given),0,6217,6,8.5,2,-1,-1
O=c1oc2cc(O[C@@H]3OC[C@@H](O)[C@H](O)[C@H]3O)ccc2c2ccccc12,-4,3719,9,3.9,-7,0,11
CS(=O)c1ccccc1COC(=O)Nc1cccc(Cl)c1 (stereo not given),-10,5974,-23,1.8,-12,10,8
O=C(CSC1=NCCS1)N1CCCCCC1,-28,3055,-6,-5.1,-4,14,18
CC(=O)c1ccc(Oc2ccc(C(=O)c3ccc(C)c(C)c3)cc2[N+](=O)[O-])cc1,-11,1988,0,-6.1,3,·,·
O=C(Nc1ccccc1)N1CCCC1c1cccs1 (stereo not given),-21,3844,5,2.3,-11,-12,7
Cc1cc(NCc2ccccc2)nc(-c2ccccc2O)n1,-34,20264*,-22,-13,-2,4,8
Cc1ccc(CN2CCN(/N=C/C=C/c3ccccc3[N+](=O)[O-])CC2)cc1,-15,3651,·,·,6,·,·
COc1ccc(/C=N/Nc2nc(-c3cccc(S(=O)(=O)N4CCCC4)c3)cs2)cc1OC,-12,2459,·,·,4,·,·
CCOC(=O)C1(CCOc2ccccc2)CCN(Cc2cc(OC)cc(OC)c2)CC1,-70,3957,2,1.8,-4,5,16
COc1ccc(NC(=O)CSCC(=O)Nc2nnc(C3CC3)s2)cc1,-5,4254,8,0.2,3,0,-6
COC(=O)C(=Nc1ccccc1)/C(C(=O)C(=O)N(C)c1ccccc1)=C(\O)c1ccc(Cl)cc1,-3,4493,·,·,-1,·,·
COc1ccc(NN=C(C#N)S(=O)(=O)c2nsc(C)c2C#N)cc1,·,·,-1,3.6,·,8,9
Cc1ccc(N=Nc2c(O)n(CN3CCOCC3)c3ccccc23)cc1,-25,7064,-12,1.5,-9,0,7
CN1CC2(Cc3c1ccc1ccccc31)C(=O)OC(C)(C)OC2=O,8,9339,-1,3.4,-5,-79,-17
CCCN(CC(=O)Nc1ccccc1C)C(=O)c1ccc2ccccc2n1,-6,5583,0,-0.3,-17,-20,0
C=CCOc1c(Cl)cc(C=NO)cc1OC,·,·,34,2.5,·,10,10
CC(C)(C)SCCNC(=O)CN1C(=O)c2cccc3cccc1c23,-16,3572,0,-2.6,-6,1,17
CCOC(=O)C(NC(=O)OC(C)C)(Nc1nccs1)C(F)(F)F (stereo not given),-11,2681,-18,0.1,·,·,·
COc1ccc(-c2ccc(CCC(=O)O)n2-c2ccccc2OC)cc1,-13,4356,40,3.6,-10,5,5
CCOC(=O)CSC1=Nc2ccccc2C2=NC(CC(=O)NCc3ccc(OC)cc3)C(=O)N12 (stereo not given),1,3274,8,-2.5,0,4,7

Three compounds from above, showing only Mtb hypoxia rep, PrP UTR inh and BJeLR lethal.
compound,Mtb hypoxia rep,PrP UTR inh,BJeLR lethal
CCOC(=O)C1(CCOc2ccccc2)CCN(Cc2cc(OC)cc(OC)c2)CC1,5,-70,-4
COc1ccc(NN=C(C#N)S(=O)(=O)c2nsc(C)c2C#N)cc1,8,·,·
CN1CC2(Cc3c1ccc1ccccc31)C(=O)OC(C)(C)OC2=O,-79,8,-5

Next part
Molecule,PrP UTR inh,Autofluor counter,ugtP null kill,Sa RN4220 lethal,BJeLR lethal,Mtb hypoxia rep,Mtb hypoxia rep growth
CCC(C(=O)NCc1cccnc1)n1nc(C)c2sc3ccccc3c2c1=O (stereo not given),2,5695,-1,0.8,-2,-1,2
Cc1cccc(NC(=O)c2sc(-c3ccccc3)nc2-c2ccc([N+](=O)[O-])cc2)c1,-16,2632,-18,4.6,-7,6,-1
Cc1cccc(C(=O)NCCc2ccc(S(N)(=O)=O)cc2)c1[N+](=O)[O-],-44,2633,·,·,8,·,·
O=C(C1CCCN(S(=O)(=O)c2cc(Cl)ccc2Cl)C1)N1CCCC1 (stereo not given),-46,5779,0,1.5,8,3,12
CC(=O)N1CCN(Cc2nc3cc(NC(=O)Nc4ccccc4)ccc3n2C)CC1,7,4411,3,8.1,3,6,18
O=C(CSc1ncn[nH]1)NCc1ccccc1,-23,5260,5,0.5,-4,·,·
C=CCSc1nnc2c(n1)OC(c1cccnc1)N(C(C)=O)c1ccccc1-2 (stereo not given),-16,3019,-2,-1.1,-4,-1,-4
CC12CC(O)C3c4ccc(O)cc4CCC3C1CC/C2=N\O (stereo not given),-9,2742,·,·,5,·,·
O=C(C1=COCCO1)N(Cc1nnc(-c2ccccc2Cl)o1)C1CC1,-6,7812,3,3.6,·,4,8
CCOc1ccc(C(O)=C2C(=O)C(=O)N(CC3CCCO3)C2c2ccc(C)o2)cc1 (stereo not given),·,·,5,0.8,·,9,14
C=CCn1c(O)c(C(C)=NCCN2CCCCC2)c(=O)[nH]c1=O,-25,?,-5,6.2,-2,3,8
Cc1ccc(S(=O)(=O)Nc2ccc(N=Nc3ccc(O)cc3)cc2)cc1,-9,2150,-32,14,-6,-4,-1
O=C(O)c1ccccc1-c1csc(-c2ccccc2)n1,-22,4999,-4,1.2,5,1,9
Fc1cccc(CCN2C(=S)NCC2CC2CCCCC2)c1 (stereo not given),·,·,2,0.4,·,0,3
COCCCNC(=O)c1ccc(Cn2c(=O)c3ccccc3n(Cc3ccccc3C)c2=O)cc1,-8,3766,7,3.2,-2,2,20
S=c1[nH]nc(COc2ccccc2)n1N=Cc1ccccc1Cl,·,·,-3,11,·,-4,3
COCc1ccc(CN2CCC(n3nccc3NC(=O)CCOc3ccccc3)CC2)o1,-17,5175,5,-1.1,-12,7,3
O=C(CCCN1C(=O)c2ccccc2C1=O)Nc1ccccc1,-7,4534,4,3.1,2,3,1
COc1ccc(-c2oc3ncnc(N)c3c2-c2ccccc2)cc1,20,21630*,7,6.9,-5,13,10
Cc1ccccc1NC(=O)CSc1nnc(Cc2ccccc2)o1,-12,3540,8,9.4,-9,-4,3
CN(C)/C=N/c1ncc(-c2ncc(C(F)(F)F)cc2Cl)cn1,-3,4570,·,·,-6,·,·
C/C(CCc1oc2ccc(Cl)cc2c1-c1ccc(C)o1)=N\O,-3,4520,·,·,0,·,·
O=C(Cn1ccc([N+](=O)[O-])n1)N1CCCc2ccccc21,-21,5206,-7,-3.4,2,0,13
CCOC(=O)Cn1c(C)cc(COC)c(C#N)c1=O,-14,3391,11,0.8,·,2,9
CCCC1CCC(=NNS(=O)(=O)c2ccc(C)c([N+](=O)[O-])c2)CC1 (stereo not given),-9,2022,3,5.6,-4,-5,4
CCn1c(CNC(=O)c2ccc(OC)c(OC)c2)nnc1SCC(=O)c1ccc(OC)cc1,-20,4787,6,0.4,5,·,·
COC(=O)c1cc(OC)c(OC)cc1NC(=O)CCNC(=O)c1ccco1,-11,4088,1,2.2,-3,1,-1
Cc1sc(-n2c(C)ccc2C)c(C#N)c1C,-19,8684,20,9.8,-4,7,0
CN1C(=O)C(CC(=O)NCC2CCCCC2)SC1=Nc1ccccc1 (stereo not given),8,3412,-3,-6.0,2,3,8
O=C(COC(=O)Cn1cnc2ccccc21)Nc1ccc2c(c1)OCCO2,-19,4242,-7,1.0,-5,·,·
CN(CC(=O)Nc1ccc(F)cc1)C(=O)c1ccc2ccccc2n1,-4,?,6,2.7,·,5,-3
Cc1ccccc1NC(=S)N1CCN(Cc2ccc3c(c2)OCO3)CC1,-3,2185,4,3.1,-5,0,5
COc1ccccc1C(=O)NCC(=O)OCC(=O)Nc1ccc2[nH]c(=O)[nH]c2c1,-20,4935,-1,3.6,8,-5,4
Cc1cc(C)c(S(=O)(=O)c2ccccc2)c(Cl)n1,-9,2513,-1,-3.5,4,·,·
Cc1cc(-n2c(C)cc(C(=O)COc3ccc([N+](=O)[O-])cc3)c2C)no1,-10,4773,6,-0.7,-1,-1,6
Nc1nn(-c2ccccc2)c(N)c1N=Nc1cccc(F)c1,·,6215,8,24,42,8,2
C/C(=N\NC(=O)c1cccc(N/N=C(\C)c2ccc([N+](=O)[O-])cc2)c1)c1ccc([N+](=O)[O-])cc1,-10,3862,·,·,6,·,·
CCCCn1c(N)c(N(CCC(C)C)C(=O)COC(=O)c2ccc([N+](=O)[O-])s2)c(=O)[nH]c1=O,-10,3631,7,9.9,·,10,11
Nc1nnc(CC(=O)N/N=C/c2cccc([N+](=O)[O-])c2)s1,-2,2144,·,·,-3,·,·
CCN(CCn1cccn1)Cc1nc(-c2ccc(OC)cc2)no1,-1,4592,·,·,15,·,·
Cc1cc(C)nc(NCC(O)CNc2ccccc2C)n1 (stereo not given),-31,3671,3,-4.3,-1,-1,-2
Cc1ccc(S(=O)(=O)N(C)CC(=O)N2CCOCC2)cc1,-27,8843,6,2.8,-11,12,10
COc1ccccc1C1C(c2ccc(F)cc2)=NN(c2ccccc2)C1C(=O)N1CCOC1=O (stereo not given),·,·,2,-1.7,·,0,0
CC1CN(C(C)CO)C(=O)c2cccc(NC(=O)c3cnccn3)c2OC1CN(C)S(=O)(=O)c1ccc(F)cc1 (stereo not given),·,·,-3,1.7,·,6,8
O=C(Cc1ccc(Cl)cc1)NCCc1cnc[nH]1,-7,3813,17,4.2,-4,6,8
O=C(c1ccco1)N1CCN(CC(O)COc2ccc3oc4ccccc4c3c2)CC1 (stereo not given),-1,6569,-10,-5.4,6,1,5
O=C(c1cc2c(s1)CCC2)N1C(=O)c2ccccc2S1(=O)=O,-6,2309,-12,-9.7,-9,15,7
NS(=O)(=O)c1cccc(NC(=O)CC(NC(=O)c2ccccc2Cl)c2ccccc2)c1 (stereo not given),-5,3427,4,1.6,5,7,5
C/C(=N\NC(=O)c1ccc(O)cc1)c1cc2ccccc2o1,-30,5295,·,·,-2,·,·
COCCNC(=O)c1ccccc1NS(=O)(=O)c1ccc(Br)s1,-29,10312,2,7.2,12,4,8
